Compound activity (PubChem)
NPYLR7 agonist = activates Aedes aegypti NPYLR7 receptor | hit rate 0.15% among 270,000 | activation, % at 10 µM | HEK293T NPYLR7/Galpha15, GCaMP6s calcium fluorescence; in the data active = activation above about 40%;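 also: 0% = vehicle and 100% = reference agonist at the receptor; some compounds past the cut are filed as inactive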
NPYLR7 agonist max-min = further read-out of NPYLR7 agonist, marked with its call; activation, %; measured here: Max-Min RFU normalised activation; some inactives read as strong as hits;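 span of the calcium signal over five minutes; 0% = vehicle and 100% = native peptide agonist; compound fluorescence can raise it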
Numbers without * were called inactive; & = joins results of further samples. Not all compounds are listed (hit frequency here may not be typical).

nr	Molecule	NPYLR7 agonist	NPYLR7 agonist max-min
1	O=c1oc2ccccc2c(O)c1C(c1ccccn1)c1c(O)c2ccccc2oc1=O	7	6
2	CN(C)CCN(Cc1csc(COc2ccccc2)n1)C(=O)Cc1ccccc1	15	27
3	COCCN1CCCC2(CCNC2)C1=O (stereo unspecified)	9	4
4	CN1C2C[C@H](OC(=O)[C@H](CO)c3ccccc3)C[C@H]1[C@@H](O)C2	10	5
5	O=C(Cc1ccsc1)N1CCN(Cc2cccc(-c3noc(-c4cccs4)n3)c2)CC1	3	0
6	COc1cc(C=C2C(=O)N(C)C(=O)N(C)C2=O)ccc1OCc1ccc(C)cc1	-14	-20
7	Cc1ccccc1S(=O)(=O)N1CCN(CCOC(c2ccccc2)c2cccc(C(F)(F)F)c2)CC1 (stereo unspecified)	4	1
8	Cc1nc(SCc2nc3ccccc3c(=O)n2-c2ccc(F)cc2)n[nH]1	8	0
9	CN1CCN=C(c2ccccc2)c2cc(Cl)ccc21	-27	-35
10	O=C1NCN(c2ccccc2)C12CCN(Cc1ccccn1)CC2	-7	-11
11	CN(CCCN1CCCCC1)Cc1ccc(Cl)nc1	3	2
12	Cc1cccc(NC(=O)N2CCN(CCOC(c3ccccc3)c3ccc(F)c(F)c3)CC2)c1 (stereo unspecified)	7	8
13	C[C@]12CCC3C(CC[C@H]4C[C@@H](O)CC[C@]34C)C1CCC2=O (stereo partly specified)	0	-4
14	COc1ccc(NC2=NCCS2)cc1	0	-1
15	CN(C)C(C)(C)Cc1c2c(cc3c1CCC3)CCC2	2	-2
16	Cc1cccc(Cn2cccc(C(=O)Nc3ccccc3F)c2=O)c1	0	-1
17	O=c1[nH]c(O)c(N=Nc2ccc3c(c2)OCCO3)c(=O)[nH]1	-6	-14
18	FC(F)(F)c1cccc(C(OCCN2CCN(Cc3ccc(Cl)o3)CC2)c2ccccc2)c1 (stereo unspecified)	5	8
19	CN1C2CCC1CC(OC(=O)CNC1CCCCC1)C2 (stereo unspecified)	-3	-4
20	C=CCN1CCC23c4c5ccc(O)c4O[C@H]2C(=O)CC[C@@]3(O)C1C5 (stereo partly specified)	4	-40
21	c1cc2c(c(-c3cncnc3)c1)CCNC2	4	0
22	CCNC(=O)CN1CCCC(C(=O)c2ccc3c4c(cccc24)CC3)C1 (stereo unspecified)	18	14
23	CCCCCCCSc1cc(OC)c(CCNC)cc1OC	4	3
24	O=C1NC(=S)NC(=O)C1=Cc1cc(-c2ccccc2)n(-c2ccc(Cl)cc2)c1-c1ccccc1	-4	2
25	CO[C@H]1C=C2CCN(C)[C@H]2C2c3cc4c(cc3C(=O)O[C@@H]21)OCO4 (stereo partly specified)	5	3
26	Cc1ccc(P(=S)(N2CCOCC2)N2CCOCC2)o1	-5	-9
27	Cc1cc(/C=C2\C(=O)NC(=S)N(c3ccccc3)C2=O)c(C)n1-c1ccc(Cl)cc1	-1	-2
28	CC(C)c1cnc(CN2CC=C(c3ccccc3C(F)(F)F)CC2)o1	-7	-7
29	O=P(C=C(Cl)c1ccccc1)(C=C(Cl)c1ccccc1)NCCc1ccccc1	21	14
30	c1ccc2[nH]c(C3CCCNC3)cc2c1 (stereo unspecified)	8	6
31	CNCCc1cnc[nH]1	-9	-13
32	O=C(Nc1cnccc1N1CCCCC1)c1cccn(Cc2ccccc2)c1=O	-6	-6
33	COC(=O)C1(c2ccccc2)CCN(C(=O)CCc2ccc(F)cc2)CC1	-2	-2
34	CC(Cc1cccs1)N(C)CCN1C(=O)CCC1=O (stereo unspecified)	2	0
35	CC(C)Cc1ccc(C2NCCc3[nH]cnc32)s1 (stereo unspecified)	8	7
36	O=C(c1cccc(C(F)(F)F)c1)C1CCCN(Cc2ccccc2O)C1 (stereo unspecified)	2	1
37	NC(=O)CI	-6	4
38	S=P1(NCc2ccccc2)NC(=NCc2ccccc2)c2c(nc3n2CCC3)N1 (stereo unspecified)	2	-2
39	CC(=O)C(C#N)c1c(Cl)cccc1Cl (stereo unspecified)	-5	-6
40	CC(Cc1ccccn1)NC1CCN(c2ccc(NC(=O)C3CCCC3)cc2)CC1 (stereo unspecified)	5	0
41	O=C(OC1CCN(CCCl)CC1)C(c1ccccc1)c1ccccc1	-1	-28
42	Fc1cnccc1-c1cccc2c1CCNC2	-2	-3
43	COc1ccc(CNC(=O)/C=C/c2ccc3[nH]cc(CCN(C)C)c3c2)cc1	6	-7
44	CON(C)S(=O)(=O)c1ccc(Cn2nc(C(=O)N3CCN(C(=O)C4CCCO4)CC3)c3ccccc32)cc1 (stereo unspecified)	14	16
45	Cc1nc(CCN)cc(N2CCN3CCC2CC3)n1	1	1
46	O=C1OC(c2c(O)[nH]c(=O)[nH]c2=O)c2ccccc21 (stereo unspecified)	1	-1
47	CCn1ccnc1P(=S)(N(C)C)N(C)C	1	0
48	Cc1noc(C)c1CC(=O)NC(C)Cc1ccc(Cl)cc1Cl (stereo unspecified)	-1&1	-4&3
49	CN1CCNC(=O)C12CCN(C(=O)CCc1cccnc1)CC2	8	3
50	C=C1C[C@@H]2[C@H](CC[C@]3(C)C(=O)CC[C@@H]23)[C@@]2(C)C=CC(=O)C=C12	-10	-14
51	O=C1NCCN2CCN(C3CCSCC3)CC12 (stereo unspecified)	2	-3
52	CCCCC(CC)C(=O)Nc1ccc2[nH]cc(CCN3CCOCC3)c2c1 (stereo unspecified)	-11	-11
53	CN1CCOC(CN(C(=O)CN2CCCC2=O)c2nccs2)C1 (stereo unspecified)	2	3
54	N#Cc1ccc(CN2CCN(c3cccc(Cl)c3)CC2)cc1	9	3
55	Cn1cccc1C(=O)NS(=O)(=O)c1ccc(C#N)c(Cl)c1	3	2
56	CN1C(=O)C2(CCN(Cc3cc4n(n3)CCNC4)CC2)c2ccccc21	2	-2
57	O=C(c1ccccc1F)N1CCC2(CC1)OCCO2	-5	-11
58	COc1ccc(OC)c(C2SCC(=O)N(CC(=O)NC3CC3)c3c2c(C(C)(C)C)nn3-c2ccc(F)cc2)c1 (stereo unspecified)	15	7
59	CS(=O)(=O)c1ccccc1S(=O)(=O)N1CCN(CCOC(c2ccc(Cl)cc2)c2ccc(Cl)cc2)CC1	2	0
60	COc1ccc2[nH]c3c(c2c1)CCN=C3C	4	-1

Next section.
nr	Molecule	NPYLR7 agonist	NPYLR7 agonist max-min
61	Cc1cc(C(=O)Nc2ccc3c(c2)CCC3)c(C)n1C1CC1	8	4
62	Cc1ccc(F)cc1S(=O)(=O)N1CCN(CCOC(c2ccccc2)c2ccccc2)CC1	24	26
63	Cc1ccc(N2CCC(NC(C)Cc3ncccc3C)CC2)cc1 (stereo unspecified)	9	6
64	Clc1ccc(C(OCCN2CCCCC2)c2ccccc2)cc1 (stereo unspecified)	-11&-3&-6	-23&-14&-10
65	COc1cccc(CC(C)NCc2csc(C)n2)c1 (stereo unspecified)	1	-2
66	COc1ccc([C@@H]2CN(c3ncnc4[nH]ccc34)[C@@H]3C4CCN(CC4)[C@@H]32)cc1	10	8
67	CC(C)COC(=O)C1CN1C(C)(C)CO (stereo unspecified)	-8	-15
68	COc1ccc2c(CCN)c[nH]c2c1	2	3
69	CCCCn1cc(C(=O)N2CCN(c3cc(Cl)ccc3C)CC2)c2cccnc21	-2	-3
70	Cc1cccc(=O)n1CCC(=O)N1CCCN2CCC[C@H]2C1	4	1
71	COc1cc(C(=O)N2CCN3CCNC(=O)C3C2)nc(OC)n1 (stereo unspecified)	-1	-1
72	N#Cc1ccccc1S(=O)(=O)N1CCN(CCOC(c2ccccc2)c2cccc(C(F)(F)F)c2)CC1 (stereo unspecified)	3	3
73	COc1ccc2c(c1)c(C(=O)NC(C)CCn1cccn1)c(C)n2C (stereo unspecified)	0	-1
74	O[C@@H]1CC[C@H]2C[C@@H]1[C@@H](Oc1ccccn1)CN2CC1CC1	27	37
75	COC(=O)C1C(=N)Oc2cc(C)n(Cc3ccccn3)c(=O)c2C12C(=O)N(C)c1ccccc12 (stereo unspecified)	0	-2
76	CCN(CC)c1nc(SC)ncc1CNCCc1ccc(C)cc1	24	20
77	CC1=Nc2ccccc2C2C(C(=O)C34CC5CC(CC(C5)C3)C4)C12C#N (stereo unspecified)	10	6
78	Cc1cc(CN2CCC3(CCNCC3)C2)oc1C	2	0
79	C=CCN1CC[C@]23c4c5ccc(O)c4O[C@H]2C(=O)CC[C@@]3(O)[C@H]1C5	-4&-1	-10&-4
80	C[C@@H]1CC(Cl)CC[C@H]1C(=O)OC(C)(C)C (stereo partly specified)	-14	-17
81	CC1=C(C(=O)OC(C)(C)C)C2(C(=O)Nc3ccc(Br)cc32)C(C#N)C(=N)O1 (stereo unspecified)	-4	-4
82	CN1C(=O)CN=C(c2ccccc2)c2cc(Cl)ccc21	-7	-10
83	Cc1ccc(C2=CCN(Cc3nc4ccsc4c(=O)[nH]3)CC2)cc1	-1	-4
84	Cc1cccnc1CC(C)NCC(=O)NCc1ccccc1F (stereo unspecified)	5	5
85	CCCOc1c(I)cc(/C=C\[N+](=O)[O-])cc1OC	2	7
86	Cc1nc(N(C)C)nc(N2C[C@@H]3C[C@@H](C2)c2cccc(=O)n2C3)c1C	21	13
87	Cc1cc(OC(=O)N(C)C)cc2c1C(=O)/C(=C/c1ccncc1)O2	0	-2
88	CON(C)S(=O)(=O)c1ccc(Cn2nc(C(=O)Nc3ccccn3)c3ccccc32)cc1	8	16
89	CCCCCC1(C)NCCN2C(=O)CSC21 (stereo unspecified)	-3	-5
90	CC12CCC3C(CCC4CC(=O)CCC43C)C1CCC2O (stereo unspecified)	-6	-17

Another view of part of the listing above:
66: COc1ccc([C@@H]2CN(c3ncnc4[nH]ccc34)[C@@H]3C4CCN(CC4)[C@@H]32)cc1
  NPYLR7 agonist: 10
  NPYLR7 agonist max-min: 8
85: CCCOc1c(I)cc(/C=C\[N+](=O)[O-])cc1OC
  NPYLR7 agonist: 2
  NPYLR7 agonist max-min: 7
75: COC(=O)C1C(=N)Oc2cc(C)n(Cc3ccccn3)c(=O)c2C12C(=O)N(C)c1ccccc12 (stereo unspecified)
  NPYLR7 agonist: 0
  NPYLR7 agonist max-min: -2
88: CON(C)S(=O)(=O)c1ccc(Cn2nc(C(=O)Nc3ccccn3)c3ccccc32)cc1
  NPYLR7 agonist: 8
  NPYLR7 agonist max-min: 16

(next part)
nr	Molecule	NPYLR7 agonist	NPYLR7 agonist max-min
91	COC(=O)C1=C(C)OC(=N)C(C#N)C12C(=O)Nc1ccccc12 (stereo unspecified)	-5	-10
92	COc1ccc(CC2(CCc3ccncc3)C(=O)NC(=O)NC2=O)cc1	1	-3
93	Cc1cccc(C2SCC(=O)N(CC(=O)O)c3c2c(-c2ccccc2)nn3-c2ccccc2Cl)c1 (stereo unspecified)	-6	-9
94	Cc1ccnc(CC(C)N(C)Cc2ccc(-c3ccn[nH]3)s2)c1 (stereo unspecified)	2	1
95	CN1C[C@H](Oc2ccccn2)[C@]2(CCN(CC3CC3)C2)S1(=O)=O	4	9
96	CC/C=C\CCCN1CCN2CCNC(=O)C2C1 (stereo unspecified)	6	2
97	CN1CCN(c2nc(C(C)(C)C)cs2)CC1	-18	-28
98	CCOc1ccc2ccccc2c1C(=O)N1CCN(CCOC(c2ccccc2)c2ccccc2)CC1	19	24
99	COc1ccc2[nH]cc(C3=CCNCC3)c2c1	-4	-9
100	COc1ccc(CC(=O)N2CCN(C(C)C(=O)NC(C)(C)C)CC2)cc1 (stereo unspecified)	-6	-7
101	CC(C)CCn1c(CC(C)(C)C)nc2ccccc21	3	2
102	Oc1c(Cl)c(Cl)c(Cl)c(Cl)c1Cl	6	-2
103	CCC(=O)N(Cc1ccco1)Cc1cc(NC(=O)CC(C)(C)C)ccc1N(C)C1CCN(C)CC1	3	15
104	C=CC1CN2CCC1C(C(O)c1ccnc3ccc(OC)cc13)C2 (stereo unspecified)	8	5
105	Cc1cnn(CCC(=O)Nc2ccc(C#N)c(C(F)(F)F)c2)c1	-2	-3
106	CN(C)NC(=O)CCC(C)([N+](=O)[O-])[N+](=O)[O-]	12	6
107	COc1cc2c3cc1Oc1cc(ccc1O)C[C@@H]1c4c(cc(OC)c(O)c4Oc4cccc(c4)C[C@@H]3N(C)CC2)CC[N+]1(C)C	-3	-8
108	CCOC(=O)CCC(=O)Nc1ccc2[nH]cc(CCN3CCOCC3)c2c1	12	15
109	CC(C)N1C(=O)c2ccccc2NS1(=O)=O	-12	-13
110	CCOc1cc(C=C(C#N)C#N)cc(Cl)c1OC	0	-1
111	N#Cc1ccc(NC(=O)C2COc3ccccc3O2)cc1Cl (stereo unspecified)	9	5
112	Cc1c[nH]c(CN2C[C@H]3C[C@H](O)[C@@H](O)C[C@H]3C2)c(C)c1=O	2	0
113	CN1CC2(CCN(CC(=O)NCc3ccccn3)C2)OC1=O (stereo unspecified)	-4	-12
114	O=C1CCCCC1CN1CCCCC1 (stereo unspecified)	3&2	6&1
115	O=C1CNC(=O)N1CC(=O)N1C[C@H](c2ccccc2)[C@@H]2[C@H]1C1CCN2CC1	4	2
116	Clc1cccc(C2NCCc3[nH]cnc32)c1 (stereo unspecified)	-3	-6
117	COC(=O)c1ccc(NC(=O)c2cccn(Cc3cc(C)ccc3C)c2=O)cc1	12	8
118	O=[N+]([O-])c1ccc(CNCCc2ccc(Cl)cc2Cl)cc1	-6	-8
119	COc1ccc(NC(=O)C(C2CCCC2)N2CCN(C(=O)Cc3ccccc3)CC2)cc1 (stereo unspecified)	-2	3
120	COC(=O)C1C(=N)Oc2cc(C)n(CCN(C)C)c(=O)c2C12C(=O)N(C(C)C)c1ccccc12 (stereo unspecified)	-6	-9
121	CCOC(=O)c1c(C)n(C(C)C)c2ccc(OC)cc12	9	9
122	CC(C)[N+](C)(CCC(C(N)=O)(c1ccccc1)c1ccccc1)C(C)C	-4&0	-11&0

In the list so far, these contain an aryl thioether with sulfur outside any ring:
nr	Molecule	NPYLR7 agonist	NPYLR7 agonist max-min
8	Cc1nc(SCc2nc3ccccc3c(=O)n2-c2ccc(F)cc2)n[nH]1	8	0
23	CCCCCCCSc1cc(OC)c(CCNC)cc1OC	4	3
76	CCN(CC)c1nc(SC)ncc1CNCCc1ccc(C)cc1	24	20
